GALR2 ag = GALR2 (human) receptor agonism; GALR2-expressing cells, agonist activation read-out; activation, %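 (tested at 5 µM)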; 140,000 compounds, 0.48% hits;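 active means above mean plus 3 SD of all compounds, about 5% in these data, not always enough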;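 further: 0% = vehicle buffer wells and 100% = reference agonist at full effect; tested in CHO reporter cells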
RGS16-Gao = regulators of human RGS16-Galphao interaction; O15492+P09471; bead-based flow cytometry RGS16-Galphao binding, fluorescence; actives lie on both sides; binding response (% of control), % at 10 µM; 220,000 compounds, 0.38% hits;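 active means below 25% or above 175%, edge rows of some plates excepted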;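 further: Galphao activated by GDP with aluminum fluoride before binding; 100% = wells without compound and 0% = beads without RGS; some results beyond the cut were filed as inactive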
PKD1 inh = blocks activity of human protein kinase D1 | Q15139 | PKD1 kinase fluorescence polarization assay | 200,000 compounds, 0.056% hits | inhibition, %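 (about 10 µM by stock and volumes)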;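 active means inhibition of 50% or more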;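 further: controls were vehicle for no effect and a reference inhibitor for full effect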
Target sequence (Q15139 whole entry, looked up): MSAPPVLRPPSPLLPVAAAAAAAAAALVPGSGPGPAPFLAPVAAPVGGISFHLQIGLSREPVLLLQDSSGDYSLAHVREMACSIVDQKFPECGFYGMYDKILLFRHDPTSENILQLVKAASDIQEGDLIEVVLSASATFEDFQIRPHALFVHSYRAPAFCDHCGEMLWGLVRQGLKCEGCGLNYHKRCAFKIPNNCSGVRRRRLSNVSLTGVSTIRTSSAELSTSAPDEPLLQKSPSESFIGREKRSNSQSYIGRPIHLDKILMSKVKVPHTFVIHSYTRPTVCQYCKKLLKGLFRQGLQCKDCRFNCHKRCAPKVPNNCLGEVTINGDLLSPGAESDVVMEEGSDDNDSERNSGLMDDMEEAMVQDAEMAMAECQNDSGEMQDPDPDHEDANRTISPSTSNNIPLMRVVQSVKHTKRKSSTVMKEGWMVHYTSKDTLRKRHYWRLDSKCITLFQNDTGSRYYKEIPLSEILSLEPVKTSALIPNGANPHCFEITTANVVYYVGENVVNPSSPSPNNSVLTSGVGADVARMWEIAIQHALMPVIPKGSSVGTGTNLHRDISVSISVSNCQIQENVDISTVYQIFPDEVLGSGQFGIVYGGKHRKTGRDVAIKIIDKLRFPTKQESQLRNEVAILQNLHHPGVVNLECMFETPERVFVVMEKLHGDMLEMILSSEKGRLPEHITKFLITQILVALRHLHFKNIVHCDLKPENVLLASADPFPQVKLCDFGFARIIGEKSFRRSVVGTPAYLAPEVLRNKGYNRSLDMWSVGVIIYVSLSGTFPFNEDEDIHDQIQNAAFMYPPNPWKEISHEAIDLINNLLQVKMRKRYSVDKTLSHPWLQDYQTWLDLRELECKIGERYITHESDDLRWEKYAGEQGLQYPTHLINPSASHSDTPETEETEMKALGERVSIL
HSV augment = increases HSV replication in cells; 220,000 compounds, 0.005% hits; maximum fold increase; HSV replication augmentation in cells, fold increase;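 active means peak rise of 1.5-fold or more in the series; tested in PC3 cells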;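 further: first round at 10 µM; read as green reporter fluorescence; hits show the peak of a series up to 25 µM; 1 = signal of infected wells without compound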
Insulin prom inh = TRM-6 insulin promoter activity inhibition; TRM-6 cells (human fetal islet line), insulin promoter-eGFP reporter, imaging; reporter expression induced with tamoxifen; inhibition, % at 2 µM; 130,000 compounds, 0.9% hits;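 active means inhibition above the mean plus 3 SD, with well images judged a real hit on visual review, cut at about 60% in these data, passing the limit was not always enough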
Insulin prom inh cell count = recorded beside Insulin prom inh, whose call it bears; normalized cell count, %; measured here: cell count, toxicity; reference of the scale not given here;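 cells exposed to compound for 48 h; stained nuclei by imaging scaled within each plate; lower means fewer cells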
HSV augment primary fold = recorded beside HSV augment, whose call it bears; fold increase; compound at 10 µM; measured here: primary screen fold increase 10 uM; tested in PC3 cells;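 GFP signal in the first replicate; 1 = infected wells without compound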
* hit, by the source's call; i = inactive; nt = not tested or not shown; & = joins results of further samples. Rows were taken by chance. Share with any hit: about 1.1%.

compound	GALR2 ag	RGS16-Gao	PKD1 inh	HSV augment	HSV augment primary fold	Insulin prom inh	Insulin prom inh cell count
CCN1/C(=C2\OC(=S)N(C)C2=O)C=Cc2ccccc21	nt	105.0	-5.7	i	1.04	nt	nt
COc1ccc(CCNC(=O)C2CCN(c3ccc(N4CCOCC4)nn3)CC2)c(OC)c1	-1.3	101.3	0.5	i	0.84	nt	nt
CCOc1cc(S(=O)(=O)Nc2ccccn2)ccc1F	-0.8	102.5	-6.5	i	0.86	-464.3	72.7
COCCCNC(=O)CN1C(=O)CSc2ncccc21	-0.3	97.2	-15.7	i	0.9	30.0	155.6
CC(=O)Nc1ccc(N(C(=O)c2ccco2)C(C(=O)NC2CCCC2)c2cccs2)cc1 (stereo unspecified)	nt	104.2	-1.7	i	0.92	nt	nt
Cc1nc2ccccc2nc1OCc1cccc(Cl)c1	0.6	93.1	3.1	i	1.04	-63.3	72.8
O=C(O)c1ccc(-c2nc(-c3ccccc3)cs2)cc1	nt	104.7	1.8	i	1.03	-18.2	158.2
COc1ccc(C(=O)NCC(=O)NCC(=O)OCC(=O)c2cccs2)cc1	-0.5	102.7	-1.5	i	1.08	16.7	146.7
O=C(c1ccc(Cl)c(Cl)c1)N1CCCC1	-1.5	101.3	-6.9	i	0.97	21.4	161.4
Nc1ccc(Br)c[n+]1Cc1cccc2cccnc12	nt	103.4	nt	i	0.82	nt	nt
O=C(/C=C/c1ccco1)NCC(=O)N/N=C/c1ccc([N+](=O)[O-])cc1	nt	104.4	-6.6	i	0.88	28.6	116.8
O/N=C/c1ccn(-c2ccc(Br)cc2)c1	nt	98.0	-0.9	i	0.9	13.3	126.2
Cc1ccc(C(=O)NC2CCN(C(=O)N3CCOCC3)CC2)cc1	-1.8	104.8	2.8	i	0.99	-36.4	110.1
CCOC(=O)c1cccc(N/C=C/C(=O)c2ccc(OC)c(OC)c2)c1	-0.2	101.0	-13.1	i	1.01	-19.4	91.5
CC(C)[C@@H]1NC(=O)c2cc([N+](=O)[O-])cc(I)c2OCC[C@@H](C(N)=O)NC(=O)[C@H](CCC(=O)O)NC1=O	-1.2	107.7	-13.9	i	0.84	13.6	98.6
COc1cc(S(=O)(=O)N2CCCCC2)ccc1NC(=O)c1ccc(F)cc1	-0.7	103.8	0.4	i	0.7	-57.1	149.2
CCOC(=O)N1CCC(NC(=O)Cc2cn(C)c3ccccc23)CC1	-2.5	97.3	-7.1	i	0.89	17.2	108.2
O=C(NN1C(=O)C2C(c3ccccc3)C=CC(c3ccccc3)C2C1=O)c1ccccc1 (stereo unspecified)	-0.7	99.7	-0.6	i	1.24	41.4	125.7
Cc1ccc(S(=O)(=O)N2CCN(CC(=O)N/N=C/c3ccccc3OCC(=O)O)CC2)cc1	nt	89.1	nt	i	0.92	nt	nt
Cc1c(NC(=O)CN2C(=O)NC(C)(c3ccccc3)C2=O)c(=O)n(-c2ccccc2)n1C (stereo unspecified)	-0.2	106.3	-6.3	i	0.95	-66.7	77.5
COc1ccc(C)cc1S(=O)(=O)N(C)CC(=O)N1CCN(c2ccccc2)CC1	nt	98.2	-0.1	i	1	-33.3	86.3
O=[N+]([O-])c1ccccc1SNc1ccccn1	10.3*	101.4	-1.6	i	1.18	46.7	152.2
O=C(CCn1c(=O)[nH]c2ccsc2c1=O)N(CCc1ccccc1)Cc1ccccc1	1.8	102.6	1.2	i	0.85	-53.9	90.0
CCN1CCCC1CN(Cc1cc2ccc(C)cc2[nH]c1=O)C(=S)Nc1ccc(F)cc1 (stereo unspecified)	nt	97.1	-3.1	i	0.89	-146.2	29.7
Cc1ccc(C(=O)NNC(=S)NC(=O)c2ccc(Cl)cc2Cl)cc1	-1.0	103.1	-11.3	i	0.89	7.1	94.6
Cc1ccc(CNC(=S)N(C)C)cc1	nt	100.0	nt	i	0.53	nt	nt
CS(=O)(=O)N(CC(=O)Nc1ccc2c(c1)OCO2)c1ccc2c(c1)OCO2	-0.6	124.5	3.6	i	0.88	nt	nt
COc1ccc(/C=N/NC(=S)NCc2ccccc2)cc1OC	-0.2	99.7	-8.7	i	0.94	18.4	117.5
O=C(O)CCc1nn2c3ccccc3nc2n(Cc2ccccc2)c1=O	nt	97.5	0.4	i	1.01	6.2	126.1
COCCCNc1c2c3c(cccc3[nH]c1=O)C(=O)c1ccccc1-2	-2.7	99.3	109.6*	nt	nt	nt	nt
CC1(C)CC(CC(=O)O)(c2ccc(Cl)cc2)CCO1 (stereo unspecified)	-1.0	226.9	-6.0	i	1.04	-15.6	89.5
CC(C)=CCC/C(C)=C/CC/C(C)=C/CC/C(C)=C/CC1=C(C)C(=O)c2ccccc2C1=O	nt	97.4	nt	i	0.94	nt	nt
COc1ccc(NC(=O)c2ccc(NC(=O)CSc3nccc(=O)[nH]3)cc2)cc1	nt	98.2	nt	i	0.83	nt	nt
COc1cccc(CN2CCCC(CNC(=O)c3ccc(F)cc3)C2)c1OC (stereo unspecified)	nt	108.2	-5.0	i	1.01	nt	nt
Cn1c(C(=O)N2CCOCC2)cnc1Sc1ncc(C(F)(F)F)cc1Cl	-2.6	99.6	5.0	i	0.94	-6.2	104.7
Fc1ccc(NC(=S)Nc2cccnc2)c(F)c1F	nt	101.5	-9.6	i	1	-11.1	98.7
O=C(NCc1cccc(Cl)c1)NC(=O)c1csc([N+](=O)[O-])c1	nt	89.8	nt	i	1.03	nt	nt
Cc1noc(NS(=O)(=O)c2ccc(N/C=C\C(=O)c3ccncc3)cc2)c1C	-1.1	102.3	-2.3	i	0.93	0.0	86.1
Cc1ccc(-n2ncc3c(=O)n(CC(=O)N4CCN(c5ccccc5F)CC4)cnc32)cc1C	-2.4	102.3	5.5	i	0.89	31.2	127.2
Cn1c(NCCCN2CCOCC2)nc2c1c(=O)n(Cc1ccc(Cl)cc1)c(=O)n2C	-1.6	119.2	-6.6	i	0.83	nt	nt
CN(C)S(=O)(=O)c1ccc(Cl)c(NC(=O)CSc2nc3ccccc3c(=O)n2CCCN2CCOCC2)c1	0.2	130.1	-4.4	i	0.89	9.1	79.9
COC(=O)c1[nH]c(C)c(/C(O)=C2\C(=O)C(=O)N(CCN3CCOCC3)C2c2ccco2)c1C (stereo unspecified)	nt	100.3	nt	i	1.16	nt	nt
CCOc1ccc(CNC(=O)CCc2cn(C)c3ccccc23)cc1OC	nt	109.7	5.1	i	1.06	nt	nt
CC(C)(C)C(=O)Nc1ccc(-c2cc3cc(Cl)ccc3o2)cc1	nt	104.0	nt	i	0.97	nt	nt
COc1ccc(-n2ccnc2SCC(=O)NCc2ccccc2)c(OC)c1	nt	116.3	-3.0	i	0.95	nt	nt
CS(=O)(=O)c1ccc2nc(NC3(C(F)(F)F)N=C4SCCN4C3=O)sc2c1 (stereo unspecified)	2.4	97.6	-7.0	i	0.93	-16.2	95.7
COc1ccc(C(=O)N2CCN(S(=O)(=O)c3ccc(C)cc3C)CC2)cc1OC	-1.2	97.9	-9.3	i	0.83	-40.0	90.0
Cc1c(OCc2ccc(C(=O)O)o2)ccc2c3c(c(=O)oc12)CCC3	0.1	88.5	-1.4	i	0.86	-94.4	78.9
CC1(C)CC(=O)c2c(O)cc(OCc3ccc([N+](=O)[O-])cc3)cc2O1	-3.4	96.4	-3.5	nt	nt	53.3	123.5
O=C(NCc1cccnc1)c1cc(Sc2cccc(Cl)c2)nc2ccccc12	-1.8	132.7	-6.5	i	0.92	-29.7	75.2

Some of the entries so far, with values under each structure.
Results follow in this order: GALR2 ag	RGS16-Gao	PKD1 inh	HSV augment	HSV augment primary fold	Insulin prom inh	Insulin prom inh cell count
Cn1c(C(=O)N2CCOCC2)cnc1Sc1ncc(C(F)(F)F)cc1Cl
  -2.6	99.6	5.0	i	0.94	-6.2	104.7
Fc1ccc(NC(=S)Nc2cccnc2)c(F)c1F
  nt	101.5	-9.6	i	1	-11.1	98.7

Quoted at random: 4 entries already listed, in no set order.
compound	GALR2 ag	RGS16-Gao	PKD1 inh	HSV augment	HSV augment primary fold	Insulin prom inh	Insulin prom inh cell count
COc1ccc(C(=O)N2CCN(S(=O)(=O)c3ccc(C)cc3C)CC2)cc1OC	-1.2	97.9	-9.3	i	0.83	-40.0	90.0
Fc1ccc(NC(=S)Nc2cccnc2)c(F)c1F	nt	101.5	-9.6	i	1	-11.1	98.7
CC(C)(C)C(=O)Nc1ccc(-c2cc3cc(Cl)ccc3o2)cc1	nt	104.0	nt	i	0.97	nt	nt
O=C(O)CCc1nn2c3ccccc3nc2n(Cc2ccccc2)c1=O	nt	97.5	0.4	i	1.01	6.2	126.1

The list goes on:
compound	GALR2 ag	RGS16-Gao	PKD1 inh	HSV augment	HSV augment primary fold	Insulin prom inh	Insulin prom inh cell count
CCN(CC)S(=O)(=O)c1ccc(NC(=O)CC(NC(C)=O)c2ccccc2)cc1 (stereo unspecified)	-1.3	101.2	-6.3	i	1	29.0	152.1
O=C(c1ccccc1NS(=O)(=O)c1cccs1)N1CCOCC1	-3.0	106.2	4.0	i	0.66	23.1	104.3
O=C(OCc1cccc([N+](=O)[O-])c1)c1ccc2ccccc2n1	nt	105.5	-3.3	i	1.01	nt	nt
COc1cc(C(N)=O)cc(Br)c1OCc1ccccc1	-0.5	97.5	-2.8	i	0.86	3.3	75.3
O=C1CN(C(=O)c2ccc(F)c(S(=O)(=O)N3CCOCC3)c2)c2ccccc2N1	nt	106.4	6.7	i	0.88	nt	nt
CC(=O)c1cccc(-n2nnnc2SCC(=O)N2CCCC2)c1	0.0	105.4	-2.3	i	0.93	-26.3	132.8
COc1ccc(/C=C/C(=O)N2CCN(S(=O)(=O)c3ccccc3)CC2)cc1OC	nt	112.9	-9.2	i	1.07	nt	nt
c1ccc(Cn2ncc3c(Nc4ccccc4)ncnc32)cc1	nt	103.6	nt	i	0.9	nt	nt
COc1ccc(OCC(=O)Nn2c(-c3ccc(C)cc3)nc3ccccc3c2=O)cc1	-0.6	92.1	-0.6	i	0.98	31.2	82.9
Fc1ccccc1-c1nc(-c2ccc(Cl)cc2)no1	-0.6	nt	-7.2	i	0.93	-55.8	47.5
Cc1ccc(S(=O)(=O)N(C)CC(=O)NC2CC(C)(C)NC(C)(C)C2)cc1	-0.7	107.7	3.8	i	1.09	26.3	123.3
O=C(O)c1ccc(-n2nc(C(F)(F)F)c3c2CCCC3)cc1	-2.2	97.5&101.4	-4.7&-6.0	i	0.96&0.86	13.3	120.9

One compound at a time, as listed above. Order of values: GALR2 ag | RGS16-Gao | PKD1 inh | HSV augment | HSV augment primary fold | Insulin prom inh | Insulin prom inh cell count
O=C(c1ccccc1NS(=O)(=O)c1cccs1)N1CCOCC1 as listed: -3.0 | 106.2 | 4.0 | i | 0.66 | 23.1 | 104.3
CCN(CC)S(=O)(=O)c1ccc(NC(=O)CC(NC(C)=O)c2ccccc2)cc1 (stereo unspecified) as listed: -1.3 | 101.2 | -6.3 | i | 1 | 29.0 | 152.1
c1ccc(Cn2ncc3c(Nc4ccccc4)ncnc32)cc1 as listed: nt | 103.6 | nt | i | 0.9 | nt | nt
Fc1ccccc1-c1nc(-c2ccc(Cl)cc2)no1 as listed: -0.6 | nt | -7.2 | i | 0.93 | -55.8 | 47.5
COc1cc(C(N)=O)cc(Br)c1OCc1ccccc1 as listed: -0.5 | 97.5 | -2.8 | i | 0.86 | 3.3 | 75.3
